Assay outcomes: PubChem, several laboratories
MT1-MMP act inh – blocks activation of human MT1-MMP. P50281. HT1080 RFP-PRO-GFP cells, GFP/RFP ratio fluorescence, overnight; percent of plate control window, DMSO zero. GFP/RFP ratio change, % at 20 µM. 0.061% of 360,000 active;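 active = GFP/RFP ratio change of at least 30% with cell ATP level not reduced by more than half and red fluorescence within 50% of control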; note: strong numbers were not always called active
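system = RFP-PRO-GFP reporter HT1080 cells | dosing = 20 µM single dose, 1% DMSO | timing = overnight cell settling, then overnight compound exposure, 37 °C, 5% CO2 | read-out basis = GFP/RFP fluorescence ratio | controls = DMSO and RFP-L50D-GFP cell wells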
Yeast UUG start – modulators of start codon recognition fidelity in yeast; 0.13% of 350,000 active; AID 602363; activity score, % at 18.7 µM; S. cerevisiae UUG-firefly luciferase reporter, luminescence/redox ratio;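 active = replicate mean at a twofold rise or more, about +100% in these data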;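 note: firefly luciferase made from a UUG start codon reports start codon fidelity; reporter light over untreated wells divided by growth signal over untreated wells; some hits fall short of that in this replicate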
CSC inhib – cancer stem cell inhibition; cancer stem cell-like cells viability, luminescence; inhibition, % at 7.5 µM; 1.1% of 300,000 active; AID 2717;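 active = mean at 75% or more and at least half the replicates too; inconclusive = mean and replicates disagree; tested in HMLE shEcad cells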;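 note: 0% = median of negative and 100% = median of positive control wells; the first replicate is given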
Rce1 inh – inhibitors of yeast Ras-converting enzyme | calls only | 0.27% of 290,000 active | Q03530 | AID 2563 | yeast membranes, quenched prenylated peptide cleavage fluorescence;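 active = fall in fluorescence gain of 50% or more versus controls, with final raw signal at or below 3038400; inconclusive = same 50% fall but final raw signal above 3038400; inactive = fall in fluorescence gain under 50%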;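 note: plate controls were neutral control wells for no effect and wells lacking membranes for full effect; tested at 10 µM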
Target sequence (Q03530 whole entry, looked up): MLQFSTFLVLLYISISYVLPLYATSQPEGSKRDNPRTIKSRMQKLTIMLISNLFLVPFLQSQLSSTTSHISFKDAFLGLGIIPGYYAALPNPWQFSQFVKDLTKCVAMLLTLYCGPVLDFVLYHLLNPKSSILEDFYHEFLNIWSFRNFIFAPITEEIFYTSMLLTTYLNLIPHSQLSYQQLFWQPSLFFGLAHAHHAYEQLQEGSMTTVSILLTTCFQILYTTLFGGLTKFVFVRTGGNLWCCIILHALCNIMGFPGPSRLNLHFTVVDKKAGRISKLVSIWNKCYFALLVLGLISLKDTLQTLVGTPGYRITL
PABP polyA inh – PABP-poly(A) binding inhibition; P11940; PABP-poly(A) RNA binding, fluorescence polarization; inhibition, % at 35 µM; 1% of 290,000 active; AID 2014;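 active = 50% or more with normal probe brightness, or confirmed in later tests; inconclusive = above 50% with abnormal brightness, or retests that disagree; inactive = below 50% or failed in later tests; about a fifth of its hits are not listed in these tables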;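 note: calls also rest on retests at 20 µM and on dose response follow-up; controls were probe without protein and protein plus probe with vehicle; some compounds called inactive have numbers as strong as hits; many hits fall short of the cut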
Env fusion inh – blocks HIV Env-driven cell-cell fusion; HeLa-JRFL Env/CEM21 cell fusion, luciferase; inhibition, % at 12.3 µM; 1.1% of 360,000 active; AID 651610;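 active = mean replicate inhibition score of at least 50 and every replicate individually at or above 50; inconclusive = only one of the two criteria met; inactive = mean below 50 and not all replicates reaching 50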;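 note: 0% = plate neutral controls and 100% = maraviroc near 300 nM; one replicate is shown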
eIF4H inh – inhibitors of RNA binding by human eIF4H; inhibition, % at 35 µM; Q15056; 0.94% of 290,000 active; eIF4H fluorescence polarization binding assay;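 active = 50% or more with normal probe brightness, or confirmed in later tests; inconclusive = above 50% with abnormal brightness, or retests that disagree; inactive = below 50% or failed in later tests; about a fifth of its hits are not listed in these tables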;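 note: calls also rest on retests at 20 µM and on dose response follow-up; 0% = protein and probe with vehicle and 100% = probe without protein; strong numbers were not always called active; many hits fall short of the cut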
MT1-MMP act inh RFP – also measured in MT1-MMP act inh; calls as there; RFP signal change, %; measured here: RFP expression control read;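 0 = vehicle wells; hits needed this value within 50% of zero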
* hit, by the source's call; i = inactive; ? = inconclusive; · = no result given; & = joins results of further samples; [ ] = remark or other dose.

Each structure is followed by: MT1-MMP act inh	MT1-MMP act inh RFP	Yeast UUG start	CSC inhib	Rce1 inh	PABP polyA inh	Env fusion inh	eIF4H inh
Cc1ccc(/C=C2\SC(=S)N(CC(=O)Nc3cccnc3)C2=O)cc1
→ 7	2	·	8	i	42	3	5
O=C1c2ccccc2C(=O)N1CCCP(=O)(O)CCc1ccccc1
→ -2	1	-7	-4	i	10	·	-2
CCN(CC)CCCNCC(=O)Nc1cc(C)on1
→ -2	4	·	·	i	-7	9	6
COc1ccccc1NC(=O)NC1(C)CCS(=O)(=O)C1 (stereo not drawn)
→ 0	2	·	·	i	0	19	-1
Cc1cc(C)nc(N2CCC(C(=O)N3CCN(c4cc(Cl)ccc4C)CC3)CC2)n1
→ -3	-10	2	44	i	4	?	-10
CCCn1c(NC(=O)C2CCN(C(=O)c3ccc(F)cc3)CC2)nc2ccccc21
→ -2	3	-25	·	i	45	1	?
CN(C(=O)COC(=O)CSc1ccc(C(N)=O)cc1[N+](=O)[O-])C1CCCCC1
→ -2	0	-1	-8	i	·	·	·
Cc1ccc(N2C(=O)CC3(CCCC3)CC2=O)cc1
→ -2	-5	·	-7	i	2	-4	0
C[n+]1cc(C(=O)N2CCCCC2)ccc1/C=C/c1c[nH]c2ccccc12
→ -111	-1	·	-16	i	?	1	?
c1ccc(Oc2cnc3ccccc3n2)cc1
→ -4	-2	-17	1	i	-7	-33	-2
O=C(Nc1nc2c(ccc3ccccc32)s1)c1cc([N+](=O)[O-])ccc1N1CCOCC1
→ ·	·	·	-12	i	0	·	1
CN(CC(=O)Nc1ccccc1C(F)(F)F)C(=O)c1ccc(N2C(=O)CCC2=O)cc1
→ 1	5	-13	-17	i	·	·	·
COc1ccc(-c2nc(C#N)c(N3CCCCCC3)o2)cc1
→ 0	-5	-11	6	i	-15	·	-7
CCOc1ccc(N2C(=O)CC(n3ccc(C)n3)C2=O)cc1 (stereo not drawn)
→ -2	0	-15	-24	i	-2	-32	-1
COc1cc(C(=O)N2CCN(C/C=C/c3ccccc3)CC2)cc(OC)c1C
→ 3	-4	0	-13	i	10	·	2
O=C(CSc1n[nH]c(=O)[nH]c1=O)NC1CC1
→ 2	6	·	-2	i	1	-5	-4
O=C(CN1C(=O)NC2(CCCCC2)C1=O)NCc1ccc2c(c1)OCO2
→ 1	0	-12	5	i	0	-12	-5
Cc1cccc(OCc2nnc(N)s2)c1
→ 0	3	-4	-8	i	1	5	3
Cc1cc(C)nc(NS(=O)(=O)c2ccc(NS(=O)(=O)c3ccsc3)cc2)n1
→ -3	2	0	9	i	11	8	6
COc1cc(C(=O)NCc2cccc3ccccc23)ccc1OCc1ccccc1
→ -2	-9	·	7	i	-5	-73	-7
CCOC(=O)C1=NN(C(=O)COc2ccccc2)C(O)(c2ccc(Br)cc2)C1 (stereo not drawn)
→ 2	4	·	11	i	3	-6	2
CC(C)Sc1nnc([C@H](Cc2ccccc2)NC(=O)OC(C)(C)C)o1
→ -1	-1	-6	-12	i	-6	14	7
Cc1nc(Sc2nnnn2C)c2c3c(sc2n1)CCC3
→ 7	-4	-12	65	·	4	·	-1
Cc1cc(=O)oc2cc(OC(C)C(=O)Nc3nccs3)ccc12 (stereo not drawn)
→ 5	-1	-3	13	i	0	-8	-6
O=C(Cn1cc(C(F)(F)F)cc(Cl)c1=O)Nc1cccc(Cl)c1
→ 5	7	·	6	i	-14	1	-6
O=C(Nc1ccccc1)C1=C[C@H](c2ccc(Br)cc2)C[C@H](OCc2ccc(CO)cc2)O1
→ 8	2	-15&-3	-8	i	-15	1[16.7 µM]	-18
COc1ccc(S(=O)(=O)Nc2ncccc2C)c2ccccc12
→ 1	2	5	13	i	-5	-3	-11
CCOc1ccc(NC(=O)N(C2CCCCCC2)C2CCN(C(C)=O)CC2)cc1
→ 3	1	·	·	i	7	·	-7
CCOC(=O)c1cc(NC(=O)c2ccccc2)c(=O)oc1-c1ccccc1
→ -4	-2	-11	-7	i	6	-3	-9
O=C(c1ccc(NS(=O)(=O)c2ccccc2)cc1)N1CCCCCC1
→ -5	-7	-7	-12	i	-8	16	3
O=C(NC(C(=O)c1ccccc1)N1CCOCC1)c1ccccc1 (stereo not drawn)
→ -4	-2	5	-4	i	-5	-112	-5
O=C(CC1(O)C(=O)Nc2ccccc21)c1ccccc1O (stereo not drawn)
→ -1	8	-21	-11	i	-6	·	-3
O=C(Nc1cc(Cl)ccc1O)c1snnc1-c1ccccc1
→ -15	-24	-21	47	i	5	6	2
Cc1nn(CC(=O)N2CCc3ccccc3C2)c(C)c1[N+](=O)[O-]
→ -1	2	·	-11	i	-12	15	-1
CCO[C@@H]1OC(C(=O)N2CCOCC2)=C[C@H](C)[C@H]1CCCO
→ -5	-2	-10	-1	i	13	24	12
Cc1ccc(NC(=O)C2CCN(S(=O)(=O)c3ccc4c(c3)CCCC(=O)N4)CC2)c(Br)c1
→ 4	-3	-24	-6	i	1	10	3
Nc1nc(N)nc(-c2cc([N+](=O)[O-])ccc2O)n1
→ -2	-2	-20	0	·	·	-3	·
CC(Sc1ccccc1)C(=O)Nc1cccc(N(C)S(C)(=O)=O)c1 (stereo not drawn)
→ 10	-1	-3	0	i	-1	-30	-1
COc1ccc(C(=O)NNC(=O)c2ccc3ccccc3c2)cc1
→ 3	-2	-14	·	·	·	-9	·
Cc1ccc(Nc2nc(C)cc(C)c2C#N)c(C)c1
→ 1	-1	-12	·	·	·	-12	·
Cc1nc2ccccc2c2oc(C(=O)NCCN3CCCCC3C)cc12 (stereo not drawn)
→ 3	4	-17	-12	i	-15	-23	18
Cc1nc2ncnn2c(Nc2ccc3c(c2)OCO3)c1Cc1ccccc1
→ 4	-2	-2	-4	i	-2	-13	17
CC(C)CN(C(=O)CSc1nnc(-c2cccs2)n1C1CC1)C1CCS(=O)(=O)C1 (stereo not drawn)
→ -3	-2	3	·	·	·	2	·
COC(=O)c1cccc(Nc2ncnc3ccc(C)cc23)c1
→ 0	-9	-7	-5	i	-7	·	4
COCCC(=O)N1CCC(Oc2ccc(C(=O)N3C[C@@H](C)O[C@@H](C)C3)cc2)CC1
→ 1	-1	-1	·	i	-1	-13	3
CCSc1nnc(NC(=O)CSc2nnc(CNC(=O)c3ccc(OC)c(OC)c3)o2)s1
→ 3	3	·	-5	i	2	-7	0
CCN(C(=O)CSc1nc2ccccc2[nH]1)C1CCS(=O)(=O)C1 (stereo not drawn)
→ -1	4	-3	-11	·	·	·	·
Cc1ccccc1-n1c(C)c(C#N)c(=O)c(-[n+]2ccccc2)c1[S-]
→ 1	5	·	2	i	4	-8	-1
CCCC(C)C(=O)OCC(=O)Nc1ccc(Br)cc1 (stereo not drawn)
→ ·	·	·	3	i	-16	·	1
O=C(C1CCN(S(=O)(=O)c2cccs2)CC1)N1CCN(c2ccccc2O)CC1
→ -3	4	-6	·	·	·	14	·

Carrying on.
Each structure is followed by: MT1-MMP act inh	MT1-MMP act inh RFP	Yeast UUG start	CSC inhib	Rce1 inh	PABP polyA inh	Env fusion inh	eIF4H inh
O=C(C1CCN(C2CCN(Cc3ccc4cc(F)ccc4n3)CC2)CC1)N1CCCC1
→ -1	-3	·	-8	i	8	2	6
COCCn1c(-c2ccc(Br)cc2)nc2oc3cc(OC)ccc3c(=O)c2c1=O
→ 1	-2	68	-15	i	-1	18	-6
Cn1cc(S(=O)(=O)NC2CCCC2)c(=O)n(C)c1=O
→ -2	2	-3	-8	i	·	-13	·
Cc1cc(OC(C)C(=O)NCc2cccnc2)c2c(C)c(Cc3ccccc3)c(=O)oc2c1 (stereo not drawn)
→ -3	-2	-15	-1	i	3	3	-5
CCOC(=O)c1c(N)c(C#N)cn1-c1ccccc1
→ 0	2	-6	·	i	-6	-86	-8
Cc1ccc2ccc(S(=O)(=O)NCc3ccccn3)cc2c1
→ 7	-1	-33	0	i	-7	21	4
Cc1cccc(-c2ccc3c(c2)C2CC3CCN2Cc2ccc3c(c2)OCO3)c1 (stereo not drawn)
→ 4	5	16	·	·	·	-24	·
CCOc1cc2[nH]c(=S)n(CCCN3CCCC3=O)c(=O)c2cc1OCC
→ 4	-3	-23	-9	i	0	-9	5
CCOc1ccc(NC(=O)c2nc(SCC)ncc2Cl)cc1
→ -12	-7	·	3	i	10	40	0
O=C(O)C(Cc1ccc(O)cc1)N1C(=O)c2ccccc2C1=O (stereo not drawn)
→ 6	6	1	-10	i	4	-3	6
CCOc1ccc(N2CC(C(=O)N3CCN(C(=O)c4ccco4)CC3)CC2=O)cc1 (stereo not drawn)
→ 0	2	4	-5	i	2	-8	-5
COC(=O)CC1SC(=O)NC1=Nc1cccc(C)c1 (stereo not drawn)
→ 1	3	-3	-5	i	0	·	8
COc1ccc(NC(=O)C(OC(=O)Cn2cnc3c2c(=O)n(C)c(=O)n3C)c2ccccc2)cc1Cl (stereo not drawn)
→ 6	2	0	·	·	·	-3	·
CC1CCCCC1NC(=O)CCCCCn1c(=S)[nH]c2ccccc2c1=O (stereo not drawn)
→ -4	-3	·	0	i	-2	19	10
O=C(Nc1ccn(CCCN2CCN(c3ccccn3)CC2)c(=O)n1)OCc1ccccc1
→ 5	2	-7	·	·	·	-5	·
CC(C)(C)n1nnnc1C(c1ccc(C(F)(F)F)cc1)N(Cc1ccc(F)cc1)Cc1ccco1 (stereo not drawn)
→ -10	-13	-7	-9	i	-7	·	3
COc1cc(/C=C/C(=O)O)cc(S(=O)(=O)Nc2ccccc2C(=O)NCCc2ccccc2)c1OC
→ -1	1	-26	-4	i	-7	-18	-3
COc1ccc(Br)cc1/C=C/C(=O)Nc1c(C)cccc1C
→ -6	-10	·	-6	i	-6	-18	-2
COc1ccc2oc(=O)c(/C(C)=N/Nc3ccccc3)cc2c1
→ -1	-4	·	13	i	-5	-10	-9
CCOc1ccccc1NC(=O)NCCC1=CCCCC1
→ 1	0	-13	-6	i	4	5	5
O=C(O)CC(c1cccc([N+](=O)[O-])c1)N1Cc2ccccc2C1=O (stereo not drawn)
→ -3	-2	·	6	·	-8	-3	4
COc1cc(/C=C/C(=O)OCC(=O)N2c3ccccc3CC2C)cc(OC)c1OC (stereo not drawn)
→ -1	2	-3	23	·	·	·	·
Cc1cccc(-n2nnnc2SCC(=O)NCC2(N3CCOCC3)CCCCC2)c1C
→ -1	-7	-12	-8	·	·	·	·
CSc1ccc(Cl)c(C(=O)OCC(=O)N(C)CCC#N)c1
→ -2	0	·	-7	i	-15	-12	1
COCCSc1nnc(NS(=O)(=O)c2ccccc2)s1
→ -3	0	-6	-8	i	-1	-2	-1
CC12CCC(c3c(C(=O)O)nn(-c4ccc(F)cc4)c31)C2(C)C (stereo not drawn)
→ 7	9	-11	-2	i	10	16	0
CC(C)(C)c1ccc(C(=O)NCCN2CCOCC2)cc1
→ 0	-1	-10	-15	i	·	3	·
Nc1c(C(=O)Nc2ccccc2Cl)nnn1-c1ccc2c(c1)OCCO2
→ 2	-7	-20	-8	i	-8	-129	6
COc1cccc(NC(=O)COc2coc(CN3CCc4ccccc4C3)cc2=O)c1
→ 1	-5	1	-10	i	·	-4	·
CC1(C)Cc2c(cnn2-c2cccc(F)c2)C(NC(=O)c2ccc[n+]([O-])c2)C1 (stereo not drawn)
→ -1	1	-4	-3	i	1	2	-4
Nc1ccc2c(c1)Cc1cc([N+](=O)[O-])ccc1-2
→ -116	-5	·	21	i	5	i	-4
Cc1ccc(NC(=O)C2CCN(C(=O)c3ccco3)CC2)cc1C
→ 1	-4	-6	-16	i	-2	11	4
